Compound activity as filed in PubChem BioAssay.
Measles inh = inhibitors of measles virus growth in cells, primary screen, measles RdRp inhibitor project, cell-based, single point, HTS. infected Vero cells, GFP fluorescence, 64 h; active compounds read low. AID 745, 2007. z-score (test concentration not listed). 33,000 tested, 0.1% active;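 active = z-score under -3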;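 also: score is relative to mean and SD of the compound wells of a plate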
* hit, by the source's call.

SMILES	Measles inh
O=C(NCc1ccccc1)c1ccc(C(=O)c2ccccc2)o1	1.9
Cc1ccccc1C(=O)Nc1sc2c(c1C(=O)NC1CCS(=O)(=O)C1)CCCC2 (stereo unspecified)	-0.54
COc1ccc(C2C(C(=O)NCc3ccccn3)c3cc(OC)c(OC)cc3C(=O)N2C)cc1OC (stereo unspecified)	-1
Fc1ccccc1Nc1nc(-c2cccs2)cs1	-0.24
COC(=O)c1cnn2c(C)c(Cc3ccccc3F)c(C)nc12	0.5
Nc1cccc(C(=O)O)c1[N+](=O)[O-]	0.08
COc1ccc(C2CC(=O)C3=C(C2)NC(C)=C(C(=O)Nc2ccc(C)cc2)C3c2ccccc2Br)cc1OC (stereo unspecified)	-0.73
CCCCOc1ccc(C(=O)Nc2c3c(nn2-c2ccc(C)cc2)CS(=O)(=O)C3)cc1	1.2
C=CCSc1nc2c(c(=O)n1C1CCOC(C)(C)C1)C1(CCCCC1)Cc1ccccc1-2 (stereo unspecified)	-0.15
CCc1ccc2c(c1)C(NC(C)=O)C(=O)N2C (stereo unspecified)	0.13

Gathered by group: the compounds so far containing a halogen
SMILES	Measles inh
Fc1ccccc1Nc1nc(-c2cccs2)cs1	-0.24
COC(=O)c1cnn2c(C)c(Cc3ccccc3F)c(C)nc12	0.5
COc1ccc(C2CC(=O)C3=C(C2)NC(C)=C(C(=O)Nc2ccc(C)cc2)C3c2ccccc2Br)cc1OC (stereo unspecified)	-0.73

Later entries:
SMILES	Measles inh
Clc1cc2c(cc1-c1nc(-c3ccccc3)c(-c3ccccc3)[nH]1)OCO2	-0.62
COC(=O)c1ccc(N=C2SC(C(=O)Nc3ccccc3)CC(=O)N2C)cc1 (stereo unspecified)	-0.05
CC1CCC(NC(=O)c2ccc3c(=O)n(Cc4ccc5c(c4)OCO5)c(=S)[nH]c3c2)CC1 (stereo unspecified)	-1.4
O=C(Oc1c(C(=O)c2ccccc2)sc2ccccc12)c1ccccc1	-0.39
COc1cccc(-c2nnc(SCc3nc4ccccc4[nH]3)n2-c2ccccc2)c1	-0.59
O=S(=O)(Nc1nc2ccccc2s1)c1cccc2cccnc12	-0.17
Cc1cc(N2CCN(CCO)CC2)n2c(nc3ccccc32)c1C#N	1.8
Cc1cc2cc(CCNC(=O)CC3CCCCC3)c(=O)[nH]c2cc1C	0.01
O=C(NCc1ccco1)C1C2C3CCC(C3)C12 (stereo unspecified)	0.09
COC(=O)c1ccc(Nc2cc(C)nc3ccc(C)cc23)cc1	-0.58
Cc1sc2ncnc(Nc3ccc(Oc4ccccc4)cc3)c2c1C	0.31
O=C(COc1ccccc1)Nc1c2c(nn1-c1cccc(Cl)c1)CSC2	-1.2
Cc1[nH]c2c(Br)ccc3c2c1CCN1C(=O)OC(C)(C)C31C (stereo unspecified)	0.07
CSCCOC(=O)C1=C(C)NC(=O)NC1c1cccc([N+](=O)[O-])c1 (stereo unspecified)	0.3
COc1ccc(C)cc1NC(=O)c1sc2nc(C)nc(N3CCCCC3C)c2c1C (stereo unspecified)	0.28
COc1ccc(CN2CCN(C(=O)C3CCN(S(=O)(=O)c4cccs4)CC3)CC2)c(OC)c1OC	-0.54
CCCCNC(=O)C(=O)NCCN1CCOCC1	0.16
O=C(Nc1c2c(nn1-c1ccc(Cl)cc1)CS(=O)(=O)C2)c1ccc(Cl)cc1	-0.81
COc1cccc(NC(=O)CCC(=O)Nc2ccc3nc(N4CCOCC4)cc(C)c3c2)c1	-0.6
CC(=O)c1cnc2cc(C)nn2c1C	0.39
O=C(c1cccc(Br)c1)N1CCN(c2ccc([N+](=O)[O-])cc2Cl)CC1	0.56
CCCCNC(=O)CCn1nc(-c2ccccc2)c2ccccc2c1=O	-0.39
Cc1ccc(CNC(=O)c2cccn3c(=O)c4ccc(Cl)cc4nc23)cc1	-0.09
C=CCSc1nc(-c2ccc(OC)cc2)cc(C(F)(F)F)c1C#N	-0.27
CCOc1ccc2nc(C(=O)Nc3ccc(Br)cc3)sc2c1	1.2
O=C(Nc1ccc(Br)cc1)C(Cc1ccccc1)N1C(=O)c2ccccc2C1=O (stereo unspecified)	-0.45
CCOc1cccc2cc(-c3csc(Nc4ccccc4OC)n3)c(=O)oc12	-0.46
O=C(O)C1CCN(S(=O)(=O)c2ccc(Br)s2)CC1	1.4
O=[N+]([O-])c1ccc(O)c(C=Nc2cc(C(F)(F)F)ccc2Oc2ccccc2)c1	-0.63
O=C1c2ccccc2-c2onc3ccc(Sc4ccccc4)c1c23	-1.4
CC1CCCCN1C(=O)Cn1c(=O)n(-c2cccc(C(F)(F)F)c2)c(=O)c2sccc21 (stereo unspecified)	2
Cc1c(Cc2ccccc2)c(=O)oc2cc(OC(C)C)ccc12	-0.67
CC(=O)Nc1ccc(Oc2ccc(C(=O)O)cc2)cc1	-0.68
COc1ccccc1-c1cc(C2CC2)nc(N)c1C#N	1.1
CN1CCN(CCN2CCn3c2nc2ccccc23)CC1	-0.11
Clc1ccc2oc(-c3cccnc3)nc2c1	0.12
CCc1ccccc1N1CN(CCc2ccccc2)CNC1=S	-0.51
CCN(c1ccccc1)S(=O)(=O)c1ccc(F)c(C(=O)Nc2cccc(Cl)c2C)c1	-0.28
c1ccc2c(-c3csc(-c4ccncc4)n3)c[nH]c2c1	-1.5
CC(C)CCNC(=O)c1cc(S(=O)(=O)N2CCCC2)ccc1F	0.31
Cc1ccc(C2=NN(CCC(=O)NCc3ccc4c(c3)OCO4)C(=O)CC2)cc1	-0.09
COc1ccc(C2=NN(C(=O)c3ccc(Br)cc3)C(c3nc4ccccc4[nH]3)C2)cc1 (stereo unspecified)	-0.44
Cc1nn(Cc2ccccc2Cl)c(C)c1N	-0.33
COc1ccc(CN2CC(=O)N(c3cc(Cl)ccc3OC)C2=S)cc1OC	-1.2
COc1ccccc1NC(=O)CN1CCN(CC(=O)Nc2ccc(Cl)c(C(F)(F)F)c2)CC1	-0.46
Cc1cc(N2CCN(C)CC2)nc2ccc(NC(=O)C3CCC(C(C)(C)C)CC3)cc12 (stereo unspecified)	-1.8
CCOC(=O)c1c(C)oc2ccc(NS(=O)(=O)c3ccc(C)c([N+](=O)[O-])c3)cc12	-0.6
COc1cc(NC(=O)c2c(C)cc3ccccn23)cc(OC)c1OC	-0.19
Cc1ccc2c(C)nc(SCc3ccc(Cl)cc3)nc2c1	-0.17
COc1cc([N+](=O)[O-])ccc1-c1ccc(C=Nc2c(-c3ccco3)nc3ccccn23)o1	0.66

Carrying on:
SMILES	Measles inh
CC(=O)c1ccc(N2CCN(C(=O)CN3C(=O)C4C5C=CC(C5)C4C3=O)CC2)cc1 (stereo unspecified)	0.18
Cc1c(Br)c(C(F)(F)F)nn1CC(=O)Nc1cc(Oc2ccc(F)cc2)cc(Oc2cccnc2)c1	-1.3
Cc1nn(-c2ccccc2)c2nc3ccc(Cl)cc3cc12	0.81
CCCCCSc1nc(N2CCOCC2)c2c(c1C#N)CCCC2	-0.05
CCCOC(=O)C1=C(C)NC2=C(C(=O)C(C(=O)OC)C(C)C2)C1c1cccc(F)c1 (stereo unspecified)	-0.01
CSc1nnc(SC)nn1	1.6
Cc1cc(C)c(C(=O)C2OC(=O)C(C)(C)C(=O)C2(C)C)c(C)c1 (stereo unspecified)	0.55
Cc1nn(CC(O)Cn2c3ccc(Cl)cc3c3cc(Cl)ccc32)c(C)c1Br (stereo unspecified)	-1.8
Cc1onc(-c2ccccc2Cl)c1C(=O)N1CCN=C1SCc1ccccc1	-1.7
O=C(O)CCNC(=O)Cn1cnc2sc3c(c2c1=O)CCCC3	1.6
COC(=O)c1ccc(C2/C(=C(\O)c3ccc(C)cc3)C(=O)C(=O)N2CC(C)O)cc1 (stereo unspecified)	-1.1
Cc1ccc(S(=O)(=O)NC(=O)Nc2cccc(Cl)c2C)cc1	0.49
Cc1ccc2oc(C(F)(F)F)cc(=O)c2c1	1.3
CC1=C(C(=O)Nc2cccc(C(F)(F)F)c2)C(c2cccs2)C2=C(CC(C)(C)CC2=O)N1 (stereo unspecified)	-0.74
Cc1cc2cc(CCNC(=O)C34CC5CC(CC(C5)C3)C4)c(=O)[nH]c2cc1C	1.1
CCSc1nc2c(cnn2-c2ccc(C)c(C)c2)c(=O)[nH]1	-0.39
Cc1cc2ccccc2n1CCNS(=O)(=O)c1ccccc1	0.89
Cc1c(C(=O)O)oc2ccc(S(=O)(=O)NC(C)c3ccccc3)cc12 (stereo unspecified)	-0.46
CCC(C)NC(=O)C1CCN(S(=O)(=O)N2CCCCCC2)CC1 (stereo unspecified)	-0.8
CCN1C(=O)c2ccccc2Sc2ccc(C(=O)NCCCN3CCOCC3)cc21	0.15
COC(=O)c1c(NC(=O)c2ccc(S(=O)(=O)N(C)C3CCCCC3)cc2)sc2c1CCN(C)C2	0.21
CC(C)NC(=O)C1CCN(c2nc3ccccc3[nH]2)CC1	-0.66
COC(=O)c1ccc(NC(=O)COc2c(C)ccc(C)c2C)cc1	-0.01
O=[N+]([O-])c1ccccc1S(=O)(=O)N1CCN(C2Cc3ccccc3C2)CC1	0.39
CCC(=O)N1CCc2cc(Br)cc(S(=O)(=O)N3CCCC(C(=O)N4CCN(c5ccccc5OC)CC4)C3)c21 (stereo unspecified)	-0.34
Cc1ccc(CSCC(=O)N2CCN(c3cc(Cl)ccc3C)CC2)cc1	-0.22
CN(C(=O)Cc1c(C(=O)O)[nH]c2ccccc12)c1ccc(Br)cc1	-0.09
O=C(NCCc1ccccc1)c1cc(=O)[nH]c2ccc(S(=O)(=O)N3CCCC3)cc12	0.56
c1coc(C2Nc3c(ccc4ccccc34)C3OCCC23)c1 (stereo unspecified)	-0.76
O=C(Cc1ccccc1)N1N=C(c2cccc(Br)c2)CC1(O)C(F)(F)F (stereo unspecified)	-1.1
O=C(Nc1nc(-c2ccc3ccccc3c2)cs1)c1ccccc1	-0.03
CCCOc1ccc(-c2[nH]ncc2Oc2ccccc2)c(O)c1	-1.1
Cc1ccc(CNC(=O)C2CCC(CNc3nc(=S)[nH]c4ccccc34)CC2)cc1 (stereo unspecified)	-1.1
Cc1ccc2cc3cc(C(=O)N4CCCc5ccccc54)sc3nc2c1	0.91
COc1ccc(C2C3=C(CC(c4ccccc4)CC3=O)Nc3ccccc3N2C(=O)c2cc(OC)c(OC)c(OC)c2)cc1OC (stereo unspecified)	-0.05
NC(=O)CN1C(=O)c2ccccc2S1(=O)=O	0.3
CN1CCN(c2cc(N3CCN(S(C)(=O)=O)CC3)ccc2[N+](=O)[O-])CC1	0.01
CC(C)Cn1c(SCC(=O)O)nc2c1c(=O)[nH]c(=O)n2C	0.42
COc1ccc(Oc2coc3cc(OCc4ccc(Cl)cc4)ccc3c2=O)cc1	0.92
CCOC(=O)Cc1c(C)[nH]c(=S)[nH]c1=O	1.2
O=C1OC2C=CC(Br)=CC2=CC1C(=O)N1CCSC1c1ccccc1Cl (stereo unspecified)	0.89
O=C(CSc1nncc2ccccc12)N1CCOCC1	1.2
C=CCSc1nc2ccc(N=Cc3cc(Cl)ccc3O)cc2s1	1.6
CCCCCn1c(=O)[nH]c2cc(C(=O)NCc3ccccn3)ccc2c1=O	-0.04
COc1cc(C2Nc3ccc4ccccc4c3C3=C2C(=O)CC(C)(C)C3)ccc1Oc1nc2c(c(=O)n(C)c(=O)n2C)n1C (stereo unspecified)	0.65
COc1cc2c(C(=O)NCCCN3CCOCC3)cn(C)c(=O)c2cc1OC	-0.16
O=C(c1ccc(F)cc1)N1CCc2ccccc2C1	1.7
O=C(NCCn1cc(SCC(=O)N2CCCCCC2)c2ccccc21)c1cccc(C(F)(F)F)c1	-0.51
Cc1ccc(/C(O)=C2\C(=O)C(=O)N(c3nnc(C)s3)C2c2ccc(C(C)C)cc2)cc1 (stereo unspecified)	1.3
COc1cc(C=Cc2nc3cc(Cl)ccc3c(=O)n2-c2cccc([N+](=O)[O-])c2)cc(OC)c1OC	1.2

(cont.)
SMILES	Measles inh
Cc1ccc2c(c1)N(CC(=O)NC1CCCCC1)C(=O)CO2	1
O=c1oc2ccc(Cl)cc2cc1-c1cn2c(n1)sc1cc(Oc3ccccc3)ccc12	0.5
CC1=CC(C)(C)N(S(=O)(=O)c2ccc(C)cc2)c2ccc(C)cc21	0.12
Cc1cc2ccccc2c(=O)n1CC(=O)NC1CCCCCC1	-0.71
CCOc1cc(C2C(C(=O)OCc3ccccc3)=C(C)NC3=C2C(=O)CC(c2ccccc2)C3)ccc1O (stereo unspecified)	1.9
CCOC(=O)c1sc2ncnc(Nc3cccc([N+](=O)[O-])c3)c2c1C	1.8
CCC(C(=O)O)N1C(=O)C(C)Oc2ccccc21 (stereo unspecified)	-0.12
[O-]c1n[n+](-c2cccc(C(F)(F)F)c2)no1	-0.23
CCc1ccc(N=c2c([N+](=O)[O-])nn(-c3ccc4c(c3)OCCO4)n2O)cc1	-0.3
Cc1ccc(-c2n[nH]c3c2C(c2ccc([N+](=O)[O-])cc2)N(c2ccc(F)cc2)C3=O)cc1 (stereo unspecified)	-0.82
O=C(C(Cc1ccccc1)NS(=O)(=O)c1ccc(Br)s1)N1CCN(Cc2ccccc2)CC1 (stereo unspecified)	1.7

Compounds above that contain a thiophene ring, fused or not, in the order listed:
SMILES	Measles inh
Cc1ccccc1C(=O)Nc1sc2c(c1C(=O)NC1CCS(=O)(=O)C1)CCCC2 (stereo unspecified)	-0.54
Fc1ccccc1Nc1nc(-c2cccs2)cs1	-0.24
O=C(Oc1c(C(=O)c2ccccc2)sc2ccccc12)c1ccccc1	-0.39
Cc1sc2ncnc(Nc3ccc(Oc4ccccc4)cc3)c2c1C	0.31
COc1ccc(C)cc1NC(=O)c1sc2nc(C)nc(N3CCCCC3C)c2c1C (stereo unspecified)	0.28
COc1ccc(CN2CCN(C(=O)C3CCN(S(=O)(=O)c4cccs4)CC3)CC2)c(OC)c1OC	-0.54
O=C(O)C1CCN(S(=O)(=O)c2ccc(Br)s2)CC1	1.4
CC1CCCCN1C(=O)Cn1c(=O)n(-c2cccc(C(F)(F)F)c2)c(=O)c2sccc21 (stereo unspecified)	2
O=C(O)CCNC(=O)Cn1cnc2sc3c(c2c1=O)CCCC3	1.6
CC1=C(C(=O)Nc2cccc(C(F)(F)F)c2)C(c2cccs2)C2=C(CC(C)(C)CC2=O)N1 (stereo unspecified)	-0.74
COC(=O)c1c(NC(=O)c2ccc(S(=O)(=O)N(C)C3CCCCC3)cc2)sc2c1CCN(C)C2	0.21
Cc1ccc2cc3cc(C(=O)N4CCCc5ccccc54)sc3nc2c1	0.91
CCOC(=O)c1sc2ncnc(Nc3cccc([N+](=O)[O-])c3)c2c1C	1.8
O=C(C(Cc1ccccc1)NS(=O)(=O)c1ccc(Br)s1)N1CCN(Cc2ccccc2)CC1 (stereo unspecified)	1.7

This is a subset; count on the stated rates, not on these rows.
